High-throughput results deposited in PubChem BioAssay by Broad Institute.
Vaccinia stage – Vaccinia orthopox stage-specific inhibition; 89,000 tested, 0.01% active; activity change (mCherry), % (test concentration not listed); Vaccinia-infected cells, mCherry/Venus stage reporter fluorescence; active compounds read low; some inactives read as strong as hits;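 active means mCherry past -33% and 40 or more points under the early reporter, replicates agreeing; inconclusive means past -33% without that gap or agreement; tested in A549 cells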;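 further: scaled between vehicle wells and reference inhibitor wells; 23 nL library stock went into each well; one replicate is shown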
Vaccinia stage Venus – recorded beside Vaccinia stage, whose call it bears; activity change (Venus), %; measured here: Venus reporter, other viral stage;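 negative = less Venus signal; first of two replicates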
Numbers without * were called inactive; ? = inconclusive; · = no result given. A portion of the library; rates above refer to the full screens.

SMILES	Vaccinia stage	Vaccinia stage Venus
COc1ccc(S(=O)(=O)N(C)C[C@@H]2OCCCC[C@@H](C)Oc3ccc(NS(=O)(=O)c4c(C)noc4C)cc3C(=O)N([C@@H](C)CO)C[C@H]2C)cc1	?	·
CNC(=O)C[C@H]1CC[C@H]2[C@@H](COc3ccc(NC(=O)Nc4cccc(C)c4)cc3C(=O)N2C)O1	21	11
C[C@@H]1CCCCO[C@@H](CN(C)S(=O)(=O)c2ccc(Cl)cc2)[C@@H](C)CN([C@@H](C)CO)C(=O)c2cc(NS(=O)(=O)c3ccccc3)ccc2O1	-13	-6
O=C(Nc1ccccc1)N1CCCCN2[C@H](CO)[C@@H](c3ccc(C#Cc4ccccn4)cc3)[C@H]2C1	29	0
C[C@H]1CCCCO[C@H](CN(C)C(=O)Nc2ccc(C(F)(F)F)cc2)[C@@H](C)CN([C@@H](C)CO)C(=O)c2cc(NC(=O)NC3CCCCC3)ccc2O1	-27	-11
COCC#Cc1ccc([C@@H]2[C@H](CO)N3C(=O)CN(C(=O)c4ccncc4)C[C@@H]23)cc1	19	15
CO[C@@H](CN(C)C(=O)c1ccc2c(c1)OCO2)[C@@H](C)CN([C@@H](C)CO)S(=O)(=O)c1ccc(C)cc1	-25	-21
C[C@@H]1CN([C@H](C)CO)C(=O)c2cc(NS(=O)(=O)c3ccc(F)cc3)ccc2O[C@H]1CN(C)Cc1ccc2c(c1)OCO2	13	-1
COc1ccccc1CNC(=O)C[C@@H]1C[C@@H]2c3cc(NC(=O)Nc4ccc(C(F)(F)F)cc4)ccc3O[C@@H]2[C@H](CO)O1	4	15
C[C@@H]1CN([C@H](C)CO)C(=O)c2cc(C3=CCCC3)cnc2O[C@@H]1CN(C)C(=O)c1cccnc1	31	33
CCNC(=O)[C@H]1[C@H](CO)[C@H]2Cn3c(ccc(-c4ccccc4F)c3=O)[C@@H]1N2CC1CC1	6	5
C[C@@H]1CN([C@H](C)CO)C(=O)c2cccc(NC(=O)c3cnccn3)c2O[C@@H]1CN(C)Cc1ccc(Oc2ccccc2)cc1	-21	-14
O=C(C[C@@H]1CC[C@H](NS(=O)(=O)c2ccccc2)[C@@H](CO)O1)N1CCC(Cc2ccccc2)CC1	-19	-9
O=C(C[C@@H]1C=C[C@@H](NC(=O)CC2CC2)[C@H](CO)O1)NCc1ccccc1	5	-1
CN1CCN(C(=O)C[C@H]2C=C[C@@H](NC(=O)Cc3ccccn3)[C@H](CO)O2)CC1	4	-5
O=C(NCc1ccc(F)cc1)[C@@H]1[C@@H](CO)[C@@H]2Cn3c(cccc3=O)[C@@H]2N1Cc1ccccn1	-5	4
CC(C)NC(=O)N(C)C[C@H]1Oc2c(NC(=O)NC3CCCCC3)cccc2C(=O)N([C@@H](C)CO)C[C@H]1C	-3	8
C[C@@H]1CN([C@H](C)CO)C(=O)c2cc(NS(=O)(=O)c3ccc(Cl)cc3)ccc2O[C@H]1CN(C)C(=O)NC1CCCCC1	19	7
O=C1CNC[C@H]2[C@H](c3ccc(-c4ccccc4F)cc3)[C@H](CO)N12	6	6
CCS(=O)(=O)Nc1ccc2c(c1)C(=O)N(C)[C@@H]1CC[C@@H](CC(=O)N3CCCCC3)O[C@@H]1CO2	9	14
CN1C(=O)c2cc(NC(=O)c3ccc(F)cc3)ccc2OC[C@@H]2O[C@@H](CC(=O)NCC3CCCCC3)CC[C@H]21	-34	-26
CNC[C@H]1OCCCC[C@H](C)Oc2ccc(N(C)C)cc2C(=O)N([C@H](C)CO)C[C@@H]1C	6	15
CCCN1C[C@H](C)[C@@H](OC)CN(C)C(=O)c2ccc(NC(=O)C3CCC3)cc2OC[C@H]1C	11	12
CN(C)C(=O)c1ccc(-c2ccc([C@H]3[C@@H](C#N)N(S(C)(=O)=O)[C@@H]3CO)cc2)cc1	6	-2
O=C(C[C@H]1C[C@@H]2c3cc(NC(=O)NC4CCCCC4)ccc3O[C@@H]2[C@@H](CO)O1)NCc1ccncc1	8	13

Some of the entries above in another layout.
C[C@@H]1CN([C@H](C)CO)C(=O)c2cc(NS(=O)(=O)c3ccc(Cl)cc3)ccc2O[C@H]1CN(C)C(=O)NC1CCCCC1
- Vaccinia stage: 19
- Vaccinia stage Venus: 7

O=C1CNC[C@H]2[C@H](c3ccc(-c4ccccc4F)cc3)[C@H](CO)N12
- Vaccinia stage: 6
- Vaccinia stage Venus: 6

CCS(=O)(=O)Nc1ccc2c(c1)C(=O)N(C)[C@@H]1CC[C@@H](CC(=O)N3CCCCC3)O[C@@H]1CO2
- Vaccinia stage: 9
- Vaccinia stage Venus: 14

CN1C(=O)c2cc(NC(=O)c3ccc(F)cc3)ccc2OC[C@@H]2O[C@@H](CC(=O)NCC3CCCCC3)CC[C@H]21
- Vaccinia stage: -34
- Vaccinia stage Venus: -26

Next entries follow.
SMILES	Vaccinia stage	Vaccinia stage Venus
COC(=O)C[C@H]1C=C[C@@H](NS(=O)(=O)c2ccc(OC)cc2)[C@@H](CO)O1	6	6
CC=Cc1ccc2n(c1=O)C[C@@H]1[C@@H](CO)[C@H](C(=O)NCCC)N(C(=O)c3cccnc3)[C@H]21 (mixture of isomers)	8	8
O=C(C[C@@H]1CC[C@H]2[C@@H](COC[C@H](O)CN2S(=O)(=O)c2ccc(Oc3ccccc3)cc2)O1)Nc1ccccc1	?	·
O=C(CN1CCOCC1)N[C@H]1CC[C@H](CCNC(=O)Nc2cc(F)ccc2F)O[C@H]1CO	2	5
Cc1noc(C)c1S(=O)(=O)N(C)C[C@H]1Oc2ccc(NS(=O)(=O)c3ccc(Cl)cc3)cc2CC(=O)N([C@H](C)CO)C[C@@H]1C	5	2
CCNC(=O)[C@@H]1[C@@H](CO)[C@@H]2Cn3c(ccc(-c4cccc(F)c4)c3=O)[C@@H]2N1C(=O)Cc1cccnc1	3	6
C[C@@H]1CN([C@H](C)CO)C(=O)c2cc(NC(=O)Nc3ccc4c(c3)OCO4)ccc2O[C@@H](C)CCCCO[C@@H]1CN(C)S(=O)(=O)c1ccccc1	44	24
C[C@@H]1CN([C@@H](C)CO)C(=O)Cc2cc(NS(=O)(=O)c3cccs3)ccc2O[C@H]1CN(C)Cc1ccc(C(=O)O)cc1	7	3
C[C@@H]1CN([C@H](C)CO)C(=O)Cc2cc(NS(=O)(=O)c3ccc(Cl)cc3)ccc2O[C@@H]1CN(C)CC1CC1	10	3
Cc1noc(C)c1NC(=O)N(C)C[C@@H]1OCCCC[C@@H](C)Oc2ccc(NC(=O)c3ccccc3)cc2C(=O)N([C@H](C)CO)C[C@H]1C	32	5
CC(C)NC(=O)Nc1ccc2c(c1)C(=O)N([C@H](C)CO)C[C@H](C)[C@@H](CN(C)S(=O)(=O)c1ccc(F)cc1)OCCCC[C@H](C)O2	13	10
C[C@@H]1CN([C@H](C)CO)S(=O)(=O)c2ccc(C#Cc3cccc(F)c3)cc2O[C@@H]1CN(C)S(=O)(=O)c1ccccc1F	-35	-22
COc1ccc(CN2[C@H](CO)[C@@H]3c4ccccc4N(C(=O)C4CC4)C[C@@H]32)cc1	5	3
O=C(C[C@H]1C[C@H]2c3cc(NC(=O)c4cccnc4)ccc3O[C@H]2[C@@H](CO)O1)NCc1cccnc1	6	6
O=C(C[C@H]1CC[C@H](NC(=O)CC2CC2)[C@@H](CO)O1)NCc1ccccc1	8	9
CNC[C@H]1Oc2ccc(NS(=O)(=O)c3cn(C)cn3)cc2CC(=O)N([C@H](C)CO)C[C@H]1C	2	0
O=C(C[C@@H]1C[C@@H]2c3cc(NC(=O)c4cccnc4)ccc3O[C@@H]2[C@H](CO)O1)NCCN1CCCCC1	9	-4
CCCNC(=O)N(C)C[C@@H]1Oc2cc(C3=CCCCC3)ccc2S(=O)(=O)N([C@H](C)CO)C[C@@H]1C	-19	-17
C[C@@H]1CN([C@@H](C)CO)C(=O)c2cc(NS(=O)(=O)c3cccs3)ccc2O[C@@H](C)CCCCO[C@H]1CN(C)S(=O)(=O)c1ccc(F)cc1	-27	-24
Cc1ccc(S(=O)(=O)Nc2ccc3c(c2)C(=O)N([C@H](C)CO)C[C@H](C)[C@H](CN(C)C(=O)C2CCCCC2)OCCCC[C@H](C)O3)cc1	?	·
COc1ccc(CN(C)C[C@H]2Oc3ccc(NC(=O)NC(C)C)cc3C(=O)N([C@H](C)CO)C[C@@H]2C)cc1	4	-7
COCCNC(=O)C[C@H]1CC[C@@H]2[C@H](COC[C@@H](O)CN2Cc2cccc(-c3ccncc3)c2)O1	-9	-6
O=C(Nc1ccc(F)cc1)N1CC(=O)N2[C@H](CO)[C@H](c3ccc(C#Cc4cccnc4)cc3)[C@H]2C1	-14	-12
C[C@@H]1CN([C@@H](C)CO)C(=O)c2cccc(NC(=O)C3CCOCC3)c2O[C@H]1CN(C)C(=O)Nc1ccc2c(c1)OCO2	16	11
C[C@@H]1CN([C@H](C)CO)C(=O)c2cc(NC(=O)Nc3cccc4ccccc34)ccc2O[C@@H](C)CCCCO[C@@H]1CN(C)S(=O)(=O)c1ccc(F)cc1	16	22
Further entries follow.
SMILES	Vaccinia stage	Vaccinia stage Venus
C/C=C/c1cnc2c(c1)C(=O)N([C@H](C)CO)C[C@@H](C)[C@H](CN(C)S(=O)(=O)c1cn(C)cn1)O2	6	12
C[C@H](CO)N1C[C@H](C)[C@@H](CN(C)C(=O)Nc2ccc(F)cc2)OCCCC[C@H](C)Oc2ccc(NC(=O)Nc3ccc(F)cc3)cc2C1=O	8	3
C[C@@H]1CN([C@@H](C)CO)C(=O)c2cc(NC(=O)Nc3ccc(F)cc3)ccc2O[C@@H]1CN(C)Cc1ccc(C(F)(F)F)cc1	?	·
C[C@H](CO)N1C[C@H](C)[C@H](CN(C)Cc2ccc(C(F)(F)F)cc2)OCCCC[C@H](C)Oc2ccc(NS(=O)(=O)c3cccs3)cc2C1=O	?	·
CC(C)CC#Cc1ccc2c(c1)O[C@@H](CN(C)Cc1cccc(F)c1)[C@H](C)CN([C@H](C)CO)S2(=O)=O	?	·
CCCNC(=O)N1C[C@H]2[C@@H](c3ccccc31)[C@H](CO)N2Cc1cccc(OC)c1	2	3
CCCC(=O)Nc1ccc2c(c1)OC[C@@H](C)N(Cc1nccs1)C[C@@H](C)[C@@H](OC)CN(C)C2=O	0	3
O=C(C[C@@H]1C=C[C@H](NC(=O)c2cccc(F)c2)[C@H](CO)O1)Nc1nccs1	6	3
COc1ccccc1S(=O)(=O)N[C@H]1CC[C@H](CC(=O)NCc2cccc(F)c2)O[C@@H]1CO	-2	-2
CN1CCN(C(=O)c2cc3c(c(-c4cccc(-c5ccc(C(=O)N(C)C)cc5)c4)n2)[C@@H](CCO)N([S@](=O)C(C)(C)C)C3)CC1	12	17
Cc1ccc(S(=O)(=O)Nc2ccc3c(c2)C(=O)N([C@H](C)CO)C[C@H](C)[C@H](CN(C)Cc2ccc(Cl)c(Cl)c2)OCCCC[C@@H](C)O3)cc1	?	·
COc1ccccc1-c1ccc2c(c1)[C@H]1[C@H](CCN1S(=O)(=O)c1ccccc1)[C@@H](CO)N2	-10	-12
COC(=O)[C@@H]1[C@@H](CO)[C@@H]2Cn3c(ccc(-c4cccc(F)c4)c3=O)[C@@H]2N1C(C)=O	-2	10
CN(C)c1nc(N)nc(CSc2nnnn2-c2ccc(Cl)cc2)n1	16	2
C[C@H]1CN([C@@H](C)CO)C(=O)c2cc(C#CCN(C)C)cnc2O[C@@H]1CN(C)C(=O)CCN1CCCCC1	22	-3
C[C@H](CO)N1C[C@H](C)[C@H](CN(C)C(=O)Nc2cccc3ccccc23)Oc2ccc(N(C)C)cc2CC1=O	-3	3
C[C@H](CO)N1C[C@H](C)[C@@H](CN(C)Cc2ccc(Cl)c(Cl)c2)Oc2c(NC(=O)c3ccncc3)cccc2C1=O	-10	-5
C[C@H]1CN([C@@H](C)CO)C(=O)Cc2cc(NC(=O)Nc3ccccc3)ccc2O[C@@H]1CN(C)S(=O)(=O)c1cn(C)cn1	23	9
C[C@@H]1CN([C@@H](C)CO)C(=O)c2cc(NC(=O)c3ccccc3)ccc2O[C@@H](C)CCCCO[C@H]1CN(C)Cc1ccc(C(=O)O)cc1	20	4
C/C=C/c1cnc2c(c1)C(=O)N([C@H](C)CO)C[C@H](C)[C@H](CN(C)CC1CCOCC1)O2	2	4
C[C@@H]1CN([C@H](C)CO)C(=O)c2cc(NC(=O)C3CCCCC3)ccc2O[C@H]1CN(C)C(=O)NC1CCCCC1	21	15
C[C@H](CO)N1C[C@H](C)[C@H](CN(C)C(=O)Nc2ccc3c(c2)OCO3)OCCCC[C@H](C)Oc2ccc(NC(=O)Nc3cccc4ccccc34)cc2C1=O	24	18
C[C@H]1CN([C@@H](C)CO)C(=O)c2cc(-c3cccc(F)c3)cnc2O[C@@H]1CN(C)CC1CCCC1	-20	-6
CO[C@H]1CN(C)C(=O)c2cc(C#N)ccc2OC[C@H]2O[C@@H](CC[C@H]2OC)CCN(C)C(=O)[C@@H]1C	9	4
COc1ccccc1CN(C)C[C@H]1OCc2cn(nn2)CCCC(=O)N([C@@H](C)CO)C[C@H]1C	24	19
CCCNC(=O)Nc1ccc2c(c1)OC[C@H](C)N(C)C[C@H](C)[C@H](OC)CN(C)C2=O	0	-3
COc1ccc(-c2ccccc2[C@H]2[C@@H](CO)N(C(=O)NC3CCCC3)[C@H]2C#N)cc1	-19	-2

A portion from the list above:
SMILES	Vaccinia stage	Vaccinia stage Venus
C/C=C/c1cnc2c(c1)C(=O)N([C@H](C)CO)C[C@@H](C)[C@H](CN(C)S(=O)(=O)c1cn(C)cn1)O2	6	12
C[C@H](CO)N1C[C@H](C)[C@@H](CN(C)C(=O)Nc2ccc(F)cc2)OCCCC[C@H](C)Oc2ccc(NC(=O)Nc3ccc(F)cc3)cc2C1=O	8	3
C[C@@H]1CN([C@@H](C)CO)C(=O)c2cc(NC(=O)Nc3ccc(F)cc3)ccc2O[C@@H]1CN(C)Cc1ccc(C(F)(F)F)cc1	?	·
C[C@H](CO)N1C[C@H](C)[C@H](CN(C)Cc2ccc(C(F)(F)F)cc2)OCCCC[C@H](C)Oc2ccc(NS(=O)(=O)c3cccs3)cc2C1=O	?	·
